# Screens (PubChem BioAssay)
# ugtP null kill: growth inhibition of ugtP-null S. aureus, primary screen, RN4220 ugtP deletion, OD600; 16 h; some inactives read as strong as hits; growth inhibition, % (concentration not given with the values); actives 0.54% (n = 330,000); AID 1259309, 2017;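 active = z-score under -3 and OD600 up to 0.15 on both plates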;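 note: plate controls were untreated wells for no effect and antibiotic for full effect; wells of about 80 µL received 100 nL stock; the first replicate is given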
# Mtb hypoxia rep: PubChem AID 1159583; M. tuberculosis hypoxia-regulated fluorescent reporter, fluorescence; fluorescence inhibition, % (no concentration beside the values); actives 0.1% (n = 300,000);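 active = 35 to 45% if threefold the growth effect, above 45% if 1.5-fold the growth effect; inactive = the rest, general growth blockers included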;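 note: wells of about 50 µL received 100 nL stock; 0% = vehicle wells and 100% = reference inhibitor wells; whole bacteria with a GFP reporter of the hypoxia response; strong numbers were not always called active; many hits fall short of the cut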
# BJeLR viability: MLPCN primary cell-based screen for lethality selective to Ras in HRASV12 cells. BJeLR (HRASV12) viability, CellTiter-Glo ATP luminescence, 48 h; reference of the scale not given here. inhibition, % (concentration not given with the values). actives 0.17% (n = 300,000);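 active = replicate mean above 50%; inconclusive = above 50% but judged a plate artefact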;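 note: 50 nL library stock added to about 25 µL; numbers are from one replicate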
# Autofluor counter: counter-screen for toxin protease inhibitors: compound fluorescence. AID 624483. actives 3.1% (n = 360,000). fluorescence intensity (concentration not given with the values). compound autofluorescence counterscreen, microsphere flow cytometry; stronger effect = higher value;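 active = at least 3 SD above the mean of all compounds, about 16000 in these data; inconclusive = too few beads counted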;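 note: 100 nL of 1 mM stock went into each well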
# RN4220 kill: growth inhibition of S. aureus RN4220, primary screen, OD600. AID 1259311, 2017. 16 h. actives 0.33% (n = 330,000). inhibition, % (test concentration not listed);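 active = z-score of -3 or lower and OD600 up to 0.18 on both plates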;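 note: plate controls were untreated cells for no effect and reference antibiotic for full effect; stock transfer was 100 nL into about 80 µL; one replicate is shown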
# PrP 5UTR inh: inhibition of PrP 5' UTR reporter expression. cell-based PrP 5' UTR mRNA reporter, plate reader. inhibition, % (concentration not given with the values). actives 0.35% (n = 340,000);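 active = every replicate at 50% or more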;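 note: 0 = median of the neutral control wells; tested in H4 reporter cells; numbers are from one replicate; inactives centre near -14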
# Mtb hypoxia rep growth: second read-out of Mtb hypoxia rep, no call of its own (marks repeat the call); growth inhibition, %; measured here: M. tuberculosis growth (absorbance);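 0% = vehicle and 100% = reference antibiotic; read after six days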
# * hit, by the source's call; ? = inconclusive; / = no result given; & = joins results of further samples. Rows are unselected; 4.1% or so of the library scored in one or more.
no.	mol	ugtP null kill	Mtb hypoxia rep	Mtb hypoxia rep growth	BJeLR viability	Autofluor counter	RN4220 kill	PrP 5UTR inh
1	Cc1ccc(OCC(=O)N(Cc2ccco2)C2CCS(=O)(=O)C2)cc1 (configuration not stated)	0	7	11	-5	5489	2.0	-26
2	COc1ccc(-c2nc3c(s2)CCc2onc(-c4ccc(Br)cc4)c2-3)cc1	-10	-5	0	1	4027	-7.9	-26
3	O=C(CCC(=O)Nc1ccc(F)cc1)N/N=C/c1ccncc1	/	/	/	-6	2206	/	-10
4	CCc1nnc(NC(=O)C2(C)COC(c3ccccc3)OC2)s1 (configuration not stated)	3	9	1	42	3427	-0.8	-16
5	COc1ccc(C(=O)NCc2ccc3c(c2)OCO3)cc1	-2	12	25	-19	4493	-2.0	-21
6	O=C(Nc1ccc(Cl)cc1)N1CCOCC1	4	10	2	-1	3972	-2.9	-4
7	COc1cccc(NC(=O)CN(C)C(=O)Cn2c(=O)oc3ccccc32)c1	6	-1	-3	-10	5329	3.3	-16
8	O=C1C2C3C=CC(CC3)C2C(=O)N1/N=C/c1ccco1 (configuration not stated)	/	/	/	-3	4190	/	-12
9	O=C1CC(N2CCN(c3ncccn3)CC2)C(=O)N1CCc1ccccc1 (configuration not stated)	12	9	10	0	3287	-1.4	-18
10	COc1ccc(S(=O)(=O)N2CCOCC2)cc1NC(=O)c1ccc(-n2nc(C)cc2C)cc1	17	-7	2	-10	3510	4.8	7
11	Cc1ccc(/C=C2\C(=N)N3N=C(CC(=O)N4CCCCC4)SC3=NC2=O)cc1	-2	-9	-4	1	4466	7.8	-13
12	CN(CCC#N)C(=S)Nc1ccc(Oc2ccccc2)cc1	4	2	-3	12	2613	4.3	-20
13	O=C(NCCOc1ccccc1)c1cncc(Br)c1	8	3	3	-4	3148	1.2	-23
14	CN(N=Cc1ccc(O)cc1O)c1ncc(C(F)(F)F)cc1Cl	13	11	11	/	/	-2.3	/
15	Clc1ccc(-c2csc(-c3cccnc3)n2)s1	-6	-6	-9	-9	4441	6.1	-45
16	O=S(=O)(Nc1cccc2[nH]ncc12)c1cccs1	6	12	4	0	3622	5.9	-1
17	O=c1c(N2CCOCC2)nsn1Cc1ccccc1	11	/	/	2	4951	2.4	-19
18	CC(C)c1ccc(C(O)c2cnc(C(C)C)n2C)cc1 (configuration not stated)	0	12	8	11	5084	6.7	-25
19	CC1Cc2ccccc2N1C(=O)c1ccc(F)c(S(=O)(=O)N2CCOCC2)c1 (configuration not stated)	1	6	3	/	3843	3.0	-13
20	CCC(Oc1cc(Cl)ccc1Cl)C(=O)N1CCC2(CC1)OCCO2 (configuration not stated)	-5	-5	7	0	5165	1.4	-6
21	C[C@@H]1CN(S(=O)(=O)C(C)(C)C)[C@@H](CCO)/C1=C\c1ccccc1	-2	-5	8	/	3903	2.1	-21
22	Cc1cc2cc(CCNC(=O)c3c(-c4ccccc4Cl)noc3C)c(=O)[nH]c2cc1C	13	9	4	-2	/	4.7	/
23	Cc1cccc(NS(=O)(=O)c2ccc(C(=O)NCC(C)(C)N3CCOCC3)cc2)c1C	-4	-18	-9	-9	5695	1.5	-10
24	Cc1ccc(-c2nn(-c3ccccc3)cc2/C=C/C(=O)OCC(=O)NC2CC2)o1	-8	17	8	/	3276	2.4	-9
25	Cc1ccc(C2=NNC(c3ccc(Cl)cc3)=Nc3ccccc32)o1	0	-14	-7	-5	2331	3.4	1
26	Cc1cccc(NC(=O)C2C3CCCCC32)c1 (configuration not stated)	6	6	6	0	3222	3.0	-27
27	COC(=O)C1=C(C)N(Cc2ccc3c(c2)OCO3)C(=O)C1	-11	-4	14	-3	4329	-2.7	-7
28	Cc1onc(-c2ccccc2)c1-c1nnc(-c2ccccc2C(F)(F)F)o1	14	12	-1	1	6155	8.6	-26
29	CCCCCCCCCCS(=O)(=O)N/N=C/c1ccc(O)cc1	/	/	/	-5	2161	/	-12
30	Cn1cc(/C=C2\SC(=S)N(NC(=O)c3ccccc3)C2=O)c2ccccc21	-7	7	3	11	10159	25	-18
31	CC(C)(C)C(=O)Cn1nnc(-c2ccc(C(F)(F)F)cc2)n1	2	6	5	-12	6036	-0.5	-29
32	CCOc1ccc(OCCOC(=O)C2CCN(S(=O)(=O)c3ccc(C)c(C)c3)CC2)cc1	4	-2	-2	6	4634	1.0	-24
33	COc1ccccc1CNC(=O)CCNC(=O)c1ccco1	15	1	-4	/	/	3.5	-29
34	CCOC(=O)c1cnc2c(OC)cccc2c1N1CC(C)CC(C)C1 (configuration not stated)	-8	19	4	-5	3775	7.0	-13
35	C=CC[C@]12CC=CC(=O)[C@@]1(O)O[C@H](c1ccc(OC)c(OC)c1)[C@H]2C	-8	/	/	2	4269	-0.5	5
36	CC1CC(C)CN(CCCNC(=O)c2ccc(CNS(=O)(=O)c3ccc(F)cc3)cc2)C1 (configuration not stated)	-1	9	6	-4	5714	0.1	-6
37	CC(=O)N/C(=C\c1ccccc1)C(=O)NCC(=O)O	3	-1	6	/	2503	0.6	-7
38	CC(C)C(C(=O)O)N1CCS(=O)(=O)CC1 (configuration not stated)	0	1	3	0	4696	6.7	-8
39	Cc1ccc(NC(=O)NC(=O)CSc2n[nH]c(N)n2)c(C)c1	8	17	12	-1	4246	1.1	-16
40	C=CCOc1ccc(/C=C\c2nc(O)c([N+](=O)[O-])c(=O)[nH]2)cc1OCC	-3	1	-12	1	3769	0.3	-11

# Results in ugtP null kill and PrP 5UTR inh, for 7 of the compounds above:
item | Molecule | ugtP null kill | PrP 5UTR inh
38 | CC(C)C(C(=O)O)N1CCS(=O)(=O)CC1 (configuration not stated) | 0 | -8
31 | CC(C)(C)C(=O)Cn1nnc(-c2ccc(C(F)(F)F)cc2)n1 | 2 | -29
36 | CC1CC(C)CN(CCCNC(=O)c2ccc(CNS(=O)(=O)c3ccc(F)cc3)cc2)C1 (configuration not stated) | -1 | -6
40 | C=CCOc1ccc(/C=C\c2nc(O)c([N+](=O)[O-])c(=O)[nH]2)cc1OCC | -3 | -11
28 | Cc1onc(-c2ccccc2)c1-c1nnc(-c2ccccc2C(F)(F)F)o1 | 14 | -26
29 | CCCCCCCCCCS(=O)(=O)N/N=C/c1ccc(O)cc1 | / | -12
23 | Cc1cccc(NS(=O)(=O)c2ccc(C(=O)NCC(C)(C)N3CCOCC3)cc2)c1C | -4 | -10

# New compounds follow.
entry	SMILES	ugtP null kill	Mtb hypoxia rep	Mtb hypoxia rep growth	BJeLR viability	Autofluor counter	RN4220 kill	PrP 5UTR inh
41	CCOC1OC(C(=O)N2CCN(Cc3ccc4c(c3)OCO4)CC2)=CC(c2ccc3c(c2)OCO3)C1CCCO (configuration not stated)	6&-4	1&11	12&4	/	/	6.3&4.1	/
42	O=C(c1cnn(-c2ccc(Cl)cc2)c1)c1ccccc1O	-6	-3	0	11	3638	0.1	-48
43	O=C(Cn1cnc([N+](=O)[O-])n1)NCc1ccccc1	2	/	/	-2	2729	2.7	-24
44	Cc1ccc(CN/C=C/C(=O)c2ccc(Br)cc2)cc1	-14	/	/	5	2642	2.8	-19
45	COCCCNc1nc2nonc2nc1N1C[C@H]2CC[C@H]1C2	-6	-5	0	3	4522	-0.8	-27
46	COc1cc(/C=N\NC(=O)c2ccc(Cl)cc2)ccc1Oc1ccc([N+](=O)[O-])cn1	/	/	/	4	5757	/	-8
47	CCCCCC(=O)Nc1ccc(C(=O)COC(=O)CN2C(=O)NC3(CCCC3)C2=O)cc1	7	11	1	-3	6451	4.2	-25
48	CCn1c(/C=C/Nc2ccccc2)[n+](CC)c2ccc(C(=O)OCC(F)(F)F)cc21	1	-1	5	-7	2445	-0.1	-13
49	O=C(Nc1ccc(N2CCCC2)cc1)c1cc(Br)ccc1Cl	7	0	9	-4	3760	20	-62
50	CCOC(=O)C1(Cc2ccc(Cl)cc2)CCN(C(C)Cc2ccc(O)c(OC)c2)CC1 (configuration not stated)	-1	-5	14	11	5489	-4.2	-4
51	C/C(=N\NC(=O)CNC(=O)c1ccccc1F)c1ccco1	/	/	/	1	3071	/	-9
52	CC(C)Sc1nnc(Nc2ccccc2)s1	9	/	/	-8	4236	2.3	-66
53	NC(=S)NNc1ccc(Cl)c(Cl)c1	0	21	17	-6	5158	-3.1	-21
54	CCN(CCNC(=O)C1CCN(c2nnc(-n3cccc3)s2)CC1)c1ccccc1	-1	7	0	-7	5814	3.1	6
55	O=C(CC1C=CCC1)Nc1ccccc1 (configuration not stated)	2	25	14	/	3945	4.1	-10
56	COc1ccc(NC(=O)CNc2ccc(C#N)cc2)cc1	9	-6	10	1	3031	-0.1	30

# Two entries drawn at random from the list so far, as already listed:
entry	SMILES	ugtP null kill	Mtb hypoxia rep	Mtb hypoxia rep growth	BJeLR viability	Autofluor counter	RN4220 kill	PrP 5UTR inh
50	CCOC(=O)C1(Cc2ccc(Cl)cc2)CCN(C(C)Cc2ccc(O)c(OC)c2)CC1 (configuration not stated)	-1	-5	14	11	5489	-4.2	-4
56	COc1ccc(NC(=O)CNc2ccc(C#N)cc2)cc1	9	-6	10	1	3031	-0.1	30

# Next entries follow.
entry	SMILES	ugtP null kill	Mtb hypoxia rep	Mtb hypoxia rep growth	BJeLR viability	Autofluor counter	RN4220 kill	PrP 5UTR inh
57	CCOC(=O)C1(C)NC(c2ccccc2F)C2C(=O)N(c3cccc(C(C)=O)c3)C(=O)C21 (configuration not stated)	0	5	-1	-15	3265	4.0	-15
58	Cc1ccccc1C(=O)NNC(=O)C(=O)Nc1cccc(Cl)c1C	-13	5	13	-2	20831*	-3.6	-22
59	Cc1ccsc1C(=O)N1CCN(c2ncccn2)CC1	5	9	13	/	?	0.6	1
60	CN(CCOc1ccc(Cl)cc1)C(=O)c1ccc(S(=O)(=O)N2CCOCC2)cc1	-1	3	1	-4	2692	-1.0	-16
61	COc1ccc(CNCc2ccc(OC)c3ccccc23)cc1	-3	3	-3	1	4253	-0.4	-17
62	O=[N+]([O-])c1ccc(N2CCN(Cc3ccccc3)CC2)s1	6	18	-4	3	3225	2.8	1
63	Cc1ccc(S(=O)(=O)N(C)CC2Oc3ccc(NC(=O)Nc4c(C)noc4C)cc3CC(=O)N(C(C)CO)CC2C)cc1 (configuration not stated)	4	-6	3	/	/	2.5	/
64	O=C(CCc1ccccc1)NC(=S)Nc1cc(C(F)(F)F)ccc1N1CCOCC1	12	5	1	-1	19113*	-5.0	-1

# One compound at a time, from the list above. Order of values: ugtP null kill	Mtb hypoxia rep	Mtb hypoxia rep growth	BJeLR viability	Autofluor counter	RN4220 kill	PrP 5UTR inh
# O=C(CCC(=O)Nc1ccc(F)cc1)N/N=C/c1ccncc1 reads /	/	/	-6	2206	/	-10
# CCN(CCNC(=O)C1CCN(c2nnc(-n3cccc3)s2)CC1)c1ccccc1 reads -1	7	0	-7	5814	3.1	6

# Later entries
entry	SMILES	ugtP null kill	Mtb hypoxia rep	Mtb hypoxia rep growth	BJeLR viability	Autofluor counter	RN4220 kill	PrP 5UTR inh
65	Cc1nnsc1C(=O)Nc1ccc(S(=O)(=O)N2CCCCC2C)cc1 (configuration not stated)	2	-1	0	1	6338	5.7	2
66	COC(=O)c1cc(-c2c(-c3cc(OC)c(OC)c(OC)c3)noc2C)cc([N+](=O)[O-])c1	5	4	-2	-7	2921	6.0	-11
67	COc1ccc(N(C(C)C(=O)NN=C2CCCCCCC2)S(C)(=O)=O)cc1 (configuration not stated)	1	-10	6	-4	2480	0.1	-10
68	CCOC(=O)C1=C(C)NC(C)=C(C(=O)OCC)C1C	2	6	12	-3	1957	6.1	-10
69	CCc1nnc(SCc2cn3c(C)cc(C)nc3n2)n1N	2	-4	-2	4	3400	2.5	-5
70	Cc1cc(C=O)c(C)n1-c1ccc(Cl)c(C(=O)O)c1	2	3	-7	1	4005	2.6	-35
71	Cc1ccc(-c2nc3cc(N)ccc3o2)cc1Br	-1	6	-2	-2	3713	12	-56
72	Cc1ccc([C@H]2C(C(=O)O)=CC[C@@H](c3cccc(Cl)c3)N2S(=O)(=O)c2ccc(C)cc2)cc1	13	-2	2	/	3544	18	-9
73	CC(C)CC(=O)NC(=S)Nc1ccc(NC(=O)c2ccco2)cc1	89*	/	/	-1	2206	3.7	-28
74	Cc1ccnc(-n2c(-c3ccco3)nc3ccccc3c2=O)c1	5	17	11	1	5212	6.9	-33
